Screens from PubChem BioAssay.
VDR inh = Inhibitors of the vitamin D receptor (VDR): qHTS. Vitamin D3 receptor (Homo sapiens), P11473. VDR-SRC2-3 peptide fluorescence polarization, 2 h. Potency, µM, for inactives: max response, negative = inhibition, most hits filed as inhibitors. 400,000 tested, 0.93% active. AID 504847, 2011; active means well fitted inhibition curve with a large enough effect; inconclusive means small, poorly fitted or top-dose-only effect, or another doubt; inactive means no such curve, though single readings can be large or run the other way; further: series mostly up to about 120 µM
Target sequence (P11473 whole entry, looked up): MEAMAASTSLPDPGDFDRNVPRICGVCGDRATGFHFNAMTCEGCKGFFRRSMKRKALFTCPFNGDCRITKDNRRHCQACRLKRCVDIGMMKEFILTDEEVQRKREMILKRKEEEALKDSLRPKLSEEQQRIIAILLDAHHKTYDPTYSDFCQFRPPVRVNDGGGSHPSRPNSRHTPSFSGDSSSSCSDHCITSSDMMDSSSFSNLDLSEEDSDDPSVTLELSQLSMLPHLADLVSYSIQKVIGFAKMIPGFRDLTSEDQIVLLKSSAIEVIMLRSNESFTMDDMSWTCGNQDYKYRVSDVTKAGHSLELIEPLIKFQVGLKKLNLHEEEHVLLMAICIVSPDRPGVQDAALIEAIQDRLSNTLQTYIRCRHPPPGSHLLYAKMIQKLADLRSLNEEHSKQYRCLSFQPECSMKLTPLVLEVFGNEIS
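Fluorescence polarization assay measuring small-molecule disruption of VDR binding to the coregulator peptide SRC2-3. Compounds were pin-transferred (23 nl) into the reagent mix and incubated 2 h at room temperature before reading.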
The depositor's hits bear a star; ? = inconclusive; & = joins results of further samples. On the % scale 0 is the no-effect control and ±100 the full control effect; potency means the concentration at half of the fitted maximal effect. These rows are one share of the data; rates above refer to the full screens.

SMILES | VDR inh
CCCCn1c(N)c(Sc2ccccc2[N+](=O)[O-])c(=O)[nH]c1=O | -4.1%
Cc1ccc(-c2c[n+](CC(=O)Nc3ccccc3)c3n2CCC3)cc1 | 9.2%
COc1ccc(S(=O)(=O)N2CCCC(C(=O)NCc3cccnc3)C2)cc1OC (stereo not drawn) | 5.4%
Nc1c(C(=O)C2CC2)sc2nc(-c3ccccc3)cc(C(F)(F)F)c12 | -4.5%
O=C(O)CCSCCCN1C(=O)c2cccc3cccc(c23)C1=O | -3.1%
CCOc1ccc(NC(=O)CCN2CCN(c3ccccc3F)CC2)cc1 | -11.3%
COc1ccc(/C=C/C(=O)NCc2cn(C)nc2C)cc1COc1ccc(Br)cc1 | -4.2%
CCCCn1c(N)c(N(CCOC)C(=O)c2ccc(C)c(S(=O)(=O)N3CCCCC3)c2)c(=O)[nH]c1=O | 0.3%
COc1ccc(NC(=S)N=Nc2c(O)[nH]c3ccccc23)cc1 | -15.4%
COc1ccc(OCC(=O)Nc2ccc(C)c(S(=O)(=O)N(C)C)c2)cc1 | 16.3%
CCOC(=O)c1ccc(NCc2ccncc2)cc1 | -17.4%
C/C(N)=C(/C#N)C(=O)CSc1nnc(C)n1-c1ccccc1 | -7.5%
Cc1c(F)cccc1NS(=O)(=O)c1ccc(N2CCCC2=O)cc1 | -4.6%
CCN1CCN(C(=O)c2ccc3c(c2)c(C)c(C)n3Cc2ccccc2)CC1 | 2.3%
O=C(C1CCN(Cc2ccccc2)CC1)N1CCN(C/C=C/c2ccccc2)CC1 | -3.7%

4 of the entries above in order of their number in VDR inh, rising:
SMILES	VDR inh
COc1ccc(NC(=S)N=Nc2c(O)[nH]c3ccccc23)cc1	-15.4%
Cc1c(F)cccc1NS(=O)(=O)c1ccc(N2CCCC2=O)cc1	-4.6%
CCCCn1c(N)c(Sc2ccccc2[N+](=O)[O-])c(=O)[nH]c1=O	-4.1%
COc1ccc(S(=O)(=O)N2CCCC(C(=O)NCc3cccnc3)C2)cc1OC (stereo not drawn)	5.4%

(listing goes on)
SMILES | VDR inh
Fc1ccc(NC(=S)NC23CN4CN(CN(C4)C2)C3)cc1 | -5.9%
COc1ccc(N2CCN(C(=O)c3sc4ncn(CC(=O)N5CCCCC5C)c(=O)c4c3C)CC2)cc1 (stereo not drawn) | -4.3%
COc1ccc(F)cc1C(=O)C1CCCN(C(=O)CSc2ccccn2)C1 (stereo not drawn) | -19.0%
COc1ccc(C(CNC(=O)c2ccc(NS(=O)(=O)c3ccc(F)c(C)c3)cc2)N2CCCC2)cc1 (stereo not drawn) | -16.9%
Cc1ccc(Cl)cc1N1CCN(C(=O)c2ccc3c(c2)N(Cc2ccccc2F)C(=O)c2ccccc2S3(=O)=O)CC1 | 3.0%
COc1cccc(-c2cc(C(=O)Nc3ccc(F)cc3)[nH]n2)c1 | 15.4%
Cc1ccc(NC(=O)Cc2csc(-c3ccccc3)n2)cc1F | -0.5%
O=C(Nc1ccccc1N1CCCCC1)c1ccc(Cl)c([N+](=O)[O-])c1 | -28.2%
COc1ccc([C@H]2CC(=O)C=C(c3c(OC)cccc3OC)C2)cc1 | -11.9%
CC(=NN1CC(=O)NC1=O)c1ccc([N+](=O)[O-])o1 | -3.2%
Cc1cccc(-c2nc(CCNC(=O)c3ccccc3Br)cs2)c1 | 6.8%
CCc1c(C)n([O-])c2c([n+]1=O)CCC2 | 2.9%
CN1C(=O)[C@H]2[C@@H](C3CC3)N3C(=O)CN(CC4CC4)C(=O)[C@@]3(C)[C@H]2C1=O | 9.0%
CCOC(=O)CCc1c(C)nc2c(-c3ccccc3)c(C)[nH]n2c1=O | -3.9%
CCOc1ccccc1CNS(=O)(=O)c1cc(-c2onc(C)c2C)ccc1OC | 4.0%
COC(=O)c1ccc2c(=O)n(-c3ccc(OC)cc3)c(=S)[nH]c2c1 | -15.1%
O=C(N1CCOCC1)N1CCN(c2ccccn2)CC1 | 3.1%
CN(C)CCCN(Cc1ccccc1)C(=S)Nc1ccc(SC(F)F)cc1 | -10.4%
O=C(Nc1ccc(Cl)c(C(F)(F)F)c1)[C@@H]1CC=C[C@@H]2CCN(C3CC3)C(=O)[C@@H]21 | -1.5%
O=C(O)CCN1CCc2ccccc2C1c1cccs1 (stereo not drawn) | 2.9%
COc1ccc(N(CC(=O)NCCSc2ccccc2)S(=O)(=O)c2ccccc2)c(OC)c1 | -11.4%
c1ccc(Nc2nc(N3CCCCC3)nc(N3CCCCC3)n2)cc1 | -13.9%
Cc1c(C(=O)O/N=C(\N)c2ccccn2)cccc1[N+](=O)[O-] | -8.3%
CCOC(=O)c1ccc(N2C(=O)c3n[nH]c(-c4ccco4)c3C2c2cccc(F)c2)cc1 (stereo not drawn) | -18.8%
Cc1ccc(-n2c(C)cc(C)c(C#N)c2=O)cc1C | -0.7%
Clc1ccc(Cn2c(CN3CCCC3)nc3ccccc32)cc1 | -14.7%&-7.5%
CC(=O)Nc1ccc(S(=O)(=O)NCC(=O)OCc2ccccc2)cc1 | 16.2%
O=c1nc2ccccc2c(NS(=O)(=O)c2ccc(Cl)cc2)n1-c1ccccc1 | -18.9%
CCn1c(SCC(=O)Nc2ccc3c(c2)OCO3)nc2c(c1=O)SC(C)C2 (stereo not drawn) | -8.7%
COc1ccc(C(=O)Nc2cccc(C(C)=O)c2)cc1S(=O)(=O)N1CCOCC1 | -2.0%
O=C(CSc1ccc(S(=O)(=O)N2CCCCC2)cn1)Nc1ccccc1Br | -11.7%
O=C(Nc1ccc(Cl)cn1)c1ccc(Oc2ccccc2)cc1 | -6.3%
O=C(Nc1cccc(S(=O)(=O)NC2=NCCCCC2)c1)c1cc(-c2ccc(Cl)cc2)nc2ccccc12 | -8.0%
CC(C)CN(CC(C)C)S(=O)(=O)N1CCC(C(=O)NCc2ccc3c(c2)OCO3)CC1 | 7.3%
O=C(CCN1N=C(c2ccccc2)CCC1=O)NCCc1ccc(Cl)cc1 | -3.8%
COc1cccc(CN(C)CCCn2cnc(C(=O)Nc3ccc(C)c(C)c3)n2)c1 | 13.9%
CC(C)NC(=O)N1CC[C@@]2(CCCN(C(=O)c3cccn3C)C2)C1 | -3.5%
Cc1ccc(-c2nc(C#N)c(N3CCC(C(N)=O)CC3)o2)cc1 | 17.2%
O=C(NCCC(=O)N(CCc1ccccc1)Cc1ccccc1)c1ccccc1Cl | -16.4%
COc1ccc(C(O)C(CN2CCOCC2)c2ccccc2)cc1F (stereo not drawn) | 1.6%
Cc1ccc(-c2cn3c(n2)sc2cc(C(=O)NCc4cccs4)ccc23)c(C)c1 | 4.9%
CC1CN(S(=O)(=O)c2ccc(C(=O)NC3CCCCC3)cc2)CC(C)O1 (stereo not drawn) | -14.1%
O=C(Nc1ccccc1F)c1ccc([N+](=O)[O-])s1 | 10.6%
COc1ccc(OC)c(NC(=O)C2CCN(c3ncccn3)CC2)c1 | -9.3%
Cc1nn(-c2ccc(F)cc2)c(Cl)c1/C=N/NC(=O)c1cccc(S(=O)(=O)N2CCCC2)c1 | 25.5%
O=C(N/N=C/c1ccsc1)c1cc(-c2cccs2)nc2ccccc12 | -1.0%
O=C(O)Cc1sc(-c2ccccc2Cl)nc1-c1ccccc1 | -9.6%
O=C(O)C1CCN(C(=O)COc2ccc(Br)cc2)CC1 | -3.8%
CCC(c1nnnn1Cc1ccco1)N(CCN1CCOCC1)Cc1cc2cc(C)ccc2[nH]c1=O (stereo not drawn) | 5.0%
CCCCn1ccnc1C(=O)c1ccc(S(=O)(=O)N(CCOC)CCOC)cc1 | -1.9%
N/C(=N/OC(=O)c1ccccc1Cl)c1nonc1N | -5.0%
O=C(O)CC1CC(c2ccccc2)=NO1 (stereo not drawn) | -0.6%
Cc1ccc(S(=O)(=O)N2CCC(C(=O)N[C@@H](C)C(=O)NCc3ccccc3)CC2)cc1 | -12.4%
COc1cccc(NC(=O)c2ccc3c(c2)OCCO3)c1 | 14.3%
Cc1noc(C)c1CSc1nc2ccccc2c(=O)n1-c1ccc(Cl)cc1 | -9.6%
COc1ccc(-c2c(C)nn3c(C(F)(F)F)cc(C)nc23)cc1OC | 5.7%
CCOC(=O)CCNC(=O)N1CCCC(CNS(=O)(=O)Cc2ccccc2)C1 (stereo not drawn) | 3.9%
COc1ccc(C(=O)c2oc3ccc(OC)cc3c2NC(C)=O)cc1 | 8.3%
O=C(NCCCO)c1cc2c(cn1)[nH]c1ccccc12 | 2.0%
c1ccc(-c2nc3nc4ccccc4nc3n2CC2CCCO2)cc1 (stereo not drawn) | 6.7%

A draw from above in order of number of heavy atoms, high to low:
SMILES | VDR inh
CCOC(=O)CCNC(=O)N1CCCC(CNS(=O)(=O)Cc2ccccc2)C1 (stereo not drawn) | 3.9%
O=C(O)Cc1sc(-c2ccccc2Cl)nc1-c1ccccc1 | -9.6%
N/C(=N/OC(=O)c1ccccc1Cl)c1nonc1N | -5.0%

New compounds follow:
SMILES | VDR inh
CCc1cc2c(SCC(=O)N(CC)c3c(N)n(Cc4ccccc4)c(=O)[nH]c3=O)ncnc2s1 | -4.4%
COc1ccccc1CCNC(=O)C1CCN(c2nc3ccccc3nc2C(F)(F)F)CC1 | 15.7%
CC(=O)CCC(=O)OCC(=O)c1ccc(C(F)(F)F)cc1 | -18.0%
Cc1cc(Nc2ccc(F)cc2)n2c(nc3ccccc32)c1C#N | -11.0%
O=C1CCCN1C(=O)COc1ccccc1[N+](=O)[O-] | 0.2%
COc1ccc(C)cc1NC(=O)c1cc(S(=O)(=O)N2CCc3ccccc3C2)ccc1F | 15.4%
O=C(CCN1C(=O)C2CC=CCC2C1=O)Nc1nccs1 (stereo not drawn) | -1.2%
CCOc1ccc(C(=O)c2cn(CC(=O)Nc3cccc(OC)c3)c3cc4c(cc3c2=O)OCCO4)cc1 | ?
OC1(c2ccc(Cl)cc2)CCN(Cc2c[nH]c3ccccc23)CC1 | 14.8%&-0.6%
CCc1nc(SCC(=O)Nc2ccc(F)cc2F)c2c(=O)n(C)c(=O)n(C)c2n1 | -5.9%
c1ccc(SCCc2ccncc2)cc1 | 0.9%
O=C(CSCc1cccc(Br)c1)NC1CC1 | -12.6%
CCOC(=O)C1CCN(C/C=C/c2ccccc2OC)CC1 | 9.7%
Cc1sc2nc(C(C)C)oc(=O)c2c1C | -5.7%
O=C(CSc1nc2c(c(C(F)(F)F)n1)CCc1ccccc1-2)NCc1ccccc1 | -7.7%
O=C(NCCN1C(=O)S/C(=C\c2ccc(Cl)c(Cl)c2)C1=O)c1ccc2c(c1)C(=O)N(Cc1ccncc1)C2=O | -6.8%
COCCNC(=O)C(C)OC(=O)c1nsc(Cl)c1Cl (stereo not drawn) | -9.3%
CC(CNC(=O)c1cc2ccccn2n1)c1ccccc1 (stereo not drawn) | 9.0%
CCN1CCN(CC(=O)c2c[nH]c3ccc(C)cc23)CC1 | -11.2%
O=C(CN1CCN(c2ccccn2)CC1)Nc1ccc(OC(F)(F)F)cc1 | 10.4%
CC(=O)Nc1cc(-c2nn(C)c(=O)c3ccccc23)ccc1N1CCOCC1 | 5.0%
COc1ccc(C(=O)c2ccc(-c3ccc(OC)cc3)nc2)cc1 | 1.8%
CC(Oc1ccc(Cl)cc1)C(=O)/C=C/N(C)C (stereo not drawn) | 0.0%
O=C(Nc1nccs1)c1ccc(N2C(=O)[C@@H]3[C@H](C2=O)[C@H]2C=C[C@@H]3C2)cc1 | -31.7%
COC(=O)c1sccc1NC(=O)c1ccco1 | -6.5%
Cc1cnc(NC(=O)c2c(-c3ccccc3)noc2C)s1 | -8.8%
COC(=O)c1c(N)sc2c1CCN(c1ncc(C(F)(F)F)cc1Cl)C2 | 1.7%
Cn1c(=O)c(=O)n(C)c2cc(S(=O)(=O)Nc3ccc4c(c3)OCCO4)ccc21 | -2.3%
O=C(Nc1cc(Cl)ccc1-n1cncn1)c1cncc(Br)c1 | -8.8%
COC(=O)c1ccc(COc2ccccc2/C=N/NS(=O)(=O)c2ccc(C)cc2)cc1 | 3.7%
CC(=O)N[C@@H](CC(=O)O)C(=O)N[C@@H](CCC(=O)O)C(=O)O | 2.7%&-4.4%
COc1ccc(-c2csc(N3CCC(C(N)=O)(N4CCCCC4)CC3)n2)cc1 | -8.3%
CCOC(=O)C1CCN(C(=O)COc2ccc(N(C)S(=O)(=O)c3cccs3)cc2)CC1 | 11.5%
O=C(CSc1nnc(Nc2ccccc2F)s1)Nc1cccc(S(=O)(=O)N2CCCCC2)c1 | -1.0%
CCCCOc1nc2ccccc2nc1NS(=O)(=O)c1ccc(F)cc1 | 11.6%
CCCCC(CC)C(=O)Nc1ccc(C)c(O)c1 (stereo not drawn) | ?
O=C(O)c1cccc(S(=O)(=O)N(Cc2ccccc2)c2ccccc2)c1 | -13.7%
CNc1ncnc2ccc(-c3ccccc3CN(C)C)cc12 | ?
CC(C)(C)NC(=O)CCc1ncc(C(F)(F)F)cc1Cl | 22.3%
O=C(N/N=C/c1ccccn1)c1cc(C2CC2)[nH]n1 | -3.5%
CC(C)Cn1c(N)c(C(=O)COC(=O)C2=COCCO2)c(=O)n(C)c1=O | -3.2%
CC(=O)NC(CC(=O)NCc1ccncc1)c1ccccc1 (stereo not drawn) | -18.1%
Cc1ccc(-n2nc3c(=O)n(C(C)C(=O)NCCc4cccs4)nc(C)c3c2C)cc1 (stereo not drawn) | -6.1%
Cc1nn(C)c(C)c1S(=O)(=O)N(CC(=O)Nc1ccc2c(c1)OCO2)c1ccc(C(C)C)cc1 | -6.8%
Fc1cccc(Nc2ncnc3[nH]ncc23)c1 | -11.1%

Laid out differently: two of the compounds above.
> Cc1ccc(S(=O)(=O)N2CCC(C(=O)N[C@@H](C)C(=O)NCc3ccccc3)CC2)cc1
  VDR inh = -12.4%
> COc1ccccc1CCNC(=O)C1CCN(c2nc3ccccc3nc2C(F)(F)F)CC1
  VDR inh = 15.7%

Next part:
SMILES | VDR inh
CSc1nc(C(=O)N2CCCC(Nc3ccc(C)c(C)c3)C2)cs1 (stereo not drawn) | -7.5%
c1cc(-c2noc(CCC3CCCC3)n2)ccn1 | -10.3%
CC(=O)c1ccc(S(=O)(=O)N(C)CCCC(=O)N(C)Cc2c(F)cccc2Cl)cc1 | 20.5%
CCN(CC)C(=O)C(Cc1ccccc1)N1C(=O)c2ccccc2C1=O (stereo not drawn) | -2.1%
